PV pol inh – poliovirus RdRp elongation inhibitors, primary screen, biochemical, fluorescence polarization, total intensity; Genome polyprotein (Poliovirus type 1 (strain Mahoney)), P03300; poliovirus polymerase elongation; active compounds read low; % elongation, % (compound at 16.7 µg/mL); 0.66% of 150,000 active; AID 588519, 2011; in the data active = % elongation below about 90%; note: some results filed as inactive read as strong as hits
MenB inh – M. tuberculosis MenB inhibitors, primary screen, biochemical, absorbance | 0.43% of 100,000 active | MenB enzyme assay, absorbance read-out; some hits fall short of the stated cut | AID 540299, 2011 | 1,4-dihydroxy-2-naphthoyl-CoA synthase (Mycobacterium tuberculosis (strain ATCC 25618 / … | inhibition, %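 (about 12 µg/mL by stock and volumes)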;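 active = mean of two replicates above 30%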;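 note: 0% = no compound and 100% = wells with inactive enzyme; the first replicate is given; strong numbers were not always called active; inactives centre near -10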
Target sequence (P9WNP5 whole entry, looked up): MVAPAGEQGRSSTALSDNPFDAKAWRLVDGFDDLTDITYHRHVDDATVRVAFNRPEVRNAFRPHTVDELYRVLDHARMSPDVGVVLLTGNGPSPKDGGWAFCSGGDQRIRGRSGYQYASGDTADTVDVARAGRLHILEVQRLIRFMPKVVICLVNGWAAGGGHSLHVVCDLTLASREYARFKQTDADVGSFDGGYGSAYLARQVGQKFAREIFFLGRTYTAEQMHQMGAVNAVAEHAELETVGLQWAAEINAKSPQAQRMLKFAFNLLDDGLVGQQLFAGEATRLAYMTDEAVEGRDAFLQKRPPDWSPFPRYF
Mtb MbtI inh – MbtI salicylate synthase inhibitors, primary screen, biochemical, fluorescence intensity; inhibition, %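 (about 17 µg/mL by stock and volumes)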; P9WFX0; purified MbtI enzyme, fluorescence intensity read-out; 0.89% of 100,000 active;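 active = above 50% in both replicates, above 80% if mildly self-fluorescent; inactive = the rest, strongly fluorescent compounds included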;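 note: 0% = mean of negative and 100% = mean of positive controls; one replicate is shown; some compounds called inactive have numbers as strong as hits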
Target sequence (P9WFX0 whole entry, looked up): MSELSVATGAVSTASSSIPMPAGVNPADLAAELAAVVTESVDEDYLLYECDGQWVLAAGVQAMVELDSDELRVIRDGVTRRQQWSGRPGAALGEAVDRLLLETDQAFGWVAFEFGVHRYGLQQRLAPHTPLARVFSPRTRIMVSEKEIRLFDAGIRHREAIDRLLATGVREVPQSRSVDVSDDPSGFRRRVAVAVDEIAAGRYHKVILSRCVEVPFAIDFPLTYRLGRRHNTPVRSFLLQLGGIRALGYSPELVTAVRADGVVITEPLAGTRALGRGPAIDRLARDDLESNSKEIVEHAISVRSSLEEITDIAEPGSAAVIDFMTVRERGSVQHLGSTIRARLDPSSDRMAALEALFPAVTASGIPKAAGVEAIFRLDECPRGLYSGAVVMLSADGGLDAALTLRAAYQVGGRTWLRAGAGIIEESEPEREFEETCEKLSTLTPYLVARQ
PV pol inh intensity – also measured in PV pol inh; calls as there; % elongation; measured here: total intensity read-out; formula for this scale not given here;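 total fluorescence in place of polarization; lower means less elongation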
Active calls of the source: *; i = inactive; nt = no result given.

Below each SMILES – PV pol inh | PV pol inh intensity | MenB inh | Mtb MbtI inh
CCOc1cc2c(cc1OCC)-n1cccc1C(c1cc(C)c(OC)cc1C)NC2 (configuration not stated)
  108 | 106 | -5 | nt
CN1c2ccccc2C2=C(C(c3cccnc3)C(C#N)=C(N)O2)S1(=O)=O (configuration not stated)
  101 | 99 | 12 | -5
O=C1c2ccccc2C(=O)N1CC(O)CN1CCN(c2ccccc2Cl)CC1 (configuration not stated)
  103 | 100 | -19 | nt
CCCn1c(=O)n(C)c(=O)c2c(SCc3cc(=O)n4ccsc4n3)nc(CC(C)C)nc21
  103 | 105 | -2 | 5
COc1ccc2c(c1OC)C(=O)OC2CC(=O)c1ccccc1 (configuration not stated)
  102 | 102 | -13 | 6
O=C(COc1coc(CN2CCN(Cc3ccccc3)CC2)cc1=O)NCC1CCCO1 (configuration not stated)
  105 | 108 | -13 | 11
COc1ccc(-c2csc(N)n2)cc1OC
  103 | 99 | -1 | 16
N#Cc1ccc(C(=O)OC2CCCCC2=O)cc1 (configuration not stated)
  102 | 103 | 1 | 11
O=C(Oc1ccc(OC(F)(F)F)cc1)C1=Cc2cc(Cl)ccc2OC1
  106 | 101 | -12 | -5
Cc1nc(SC(C(=O)c2ccccc2)c2ccccc2)nc2ccccc12 (configuration not stated)
  103 | 97 | -20 | 2
FC(F)(F)c1cnc(N2CCc3ccccc3C2)c(Cl)c1
  107 | 100 | 10 | 10
CCn1c(-c2ccccc2)c(C(=O)Cn2cc(C)sc2=N)c2ccccc21
  101 | 105 | -9 | -4
Cc1cccc(C)c1NC(=O)CO/N=C/c1ccccc1O
  100 | 97 | -34 | -58
COC(=O)Cn1ncc(Cl)c(Cl)c1=O
  98 | 96 | -3 | 1
NC(=S)NC1CCCC1
  103 | 108 | -15 | 4
O=c1[nH]c(CN2CCN(S(=O)(=O)c3ccc4c(c3)OCCO4)CC2)nc2ccsc12
  104 | 103 | 2 | 4
Cc1cc(C)c2nc(-c3ccco3)cc(C(=O)O)c2c1
  nt | nt | -5 | -29
CC(C)=CCS(=O)(=O)c1ccccc1
  108 | 110 | -13 | nt
CC1=C(C)[N+](=O)C2(O)CCCCC2(C)N1[O-] (configuration not stated)
  103 | 102 | 21 | 10
COc1ccc(-n2nnnc2-c2cnc(N)nc2C(F)(F)F)cc1
  101 | 103 | 17 | -2
O=C(CSc1nc2ccccc2o1)NCC(F)(F)F
  99 | 95 | nt | -10
CC(C)n1ncc2c(C(=O)Nc3cccc4ncccc34)cc(C3CC3)nc21
  114 | 143 | -17 | -4
COC(=O)C(Cc1cc(Cl)ccc1Cl)SC#N (configuration not stated)
  92 | 86 | nt | 42
OC1=CONN1c1cccc2ncccc12
  102 | 105 | -11 | -8
Cc1noc(C)c1CSCC(=O)N1CCSC1=Nc1cccc(Cl)c1C
  102 | 109 | -21 | -7
O=C(O)CCCN1C(=O)c2ccccc2Sc2ncccc21
  nt | nt | 7 | 4
CCOCCn1ccc2c(OCC(=O)NC3CCCCC3)cccc2c1=O
  102 | 102 | -10 | -75
CN1CCN(CCNc2nc(-c3ccccc3F)no2)CC1
  99 | 102 | -1 | -8
CN1CCC2=C(C1)C(=O)NC1(CCCCC1)N2
  102 | 103 | -45 | -9
Cc1ccc(Sc2ccc(C(=O)O)cc2NC=O)cc1
  102 | 106 | 9 | -24
O=C(O)c1cc(O)c(O)c(O)c1
  100 | 99 | -5 | -30
O=c1oc2cc(O)ccc2cc1-c1ccc(F)cc1
  102 | 101 | -30 | i
Cc1ccc(SCC(=O)Nc2nc(-c3cccs3)cs2)cc1
  109 | 112 | -54 | 15
Cc1ccc(-c2cc(=O)[nH]c3ccccc23)cc1
  106 | 110 | -28 | nt
CC(C(=O)OCc1ccc(F)cc1)N1C(=O)c2ccccc2C1=O (configuration not stated)
  109 | 108 | -18 | 2
CC(=O)N1CCN(C(=O)c2cc(C)oc2C)CC1
  96 | 100 | -6 | -8
CC(OC(=O)c1ccc(NS(=O)(=O)c2cccs2)cc1)c1nc2scc(-c3cccs3)c2c(=O)[nH]1 (configuration not stated)
  109 | 106 | -17 | 38
NC(=O)CCc1c[nH]c2ccccc12
  100 | 103 | -4 | -93
Cn1/c(=N/NC(=O)CCc2ccc(S(=O)(=O)N3CCOCC3)cc2)sc2ccccc21
  110 | 105 | 1 | 4
CCOC(=O)C1CCN(C(=O)c2ccccc2N(C)S(C)(=O)=O)CC1
  101 | 99 | -39 | -8
O=C1C(C=NCc2cccs2)=C(O)c2ccccc21
  100 | 103 | 4 | -6
CCOC(=O)C1=CN(C2CCCC2)C=C(C(=O)OCC)C1c1ccccc1C
  102 | 104 | -70 | 7
COC(=O)N1CC2CC(C1)c1cccc(=O)n1C2 (configuration not stated)
  101 | 101 | 12 | 9
COC(=O)C(C)Sc1nc2ccsc2c(=O)n1Cc1ccccc1 (configuration not stated)
  99 | 106 | -21 | 16
CNC(=O)/C=C1\NC(C)(C)Cc2c1ccc1ccccc21
  95 | 100 | -48 | 76
CCn1c2ccccc2c2cc(C3C(C(=O)OC)=C(C)NC4=C3C(=O)CC(c3ccco3)C4)ccc21 (configuration not stated)
  102 | 100 | -24 | -20
O=C(Nc1ccc2nc(SCC(=O)N3CCOCC3)sc2c1)c1ccc(Cl)cc1Cl
  99 | 103 | -13 | nt
FC12CC3CC(F)(CC(C1)C3=C(C(F)(F)F)C(F)(F)F)C2
  105 | 104 | -21 | -1
O=C(COC(=O)Cn1cnc2ccccc21)Nc1c(F)cccc1F
  101 | 103 | nt | -10
Cc1cc(N2CCN(C)CC2)nc(SCC2COc3ccccc3O2)n1 (configuration not stated)
  106 | 106 | -3 | -4
Cc1cc(NS(=O)(=O)c2ccc(F)c(Cl)c2)no1
  101 | 106 | 6 | -3
N#CC1(Nc2cccc(C(F)(F)F)c2)CCCCCC1
  99 | 106 | 2 | -4
O=C(Nc1ncccn1)c1cc(-c2ccc(F)cc2)nc2ccccc12
  100 | 107 | nt | -7
CCN(CC)c1ncc2c(NCc3ccccc3)nc(SCc3ccccc3)nc2n1
  101 | 109 | 12 | -2
Cc1nnsc1-c1onc(C)c1C(=O)O/N=C/c1ccc(Cl)cc1
  98 | 101 | -7 | 14
O=C(Cc1ccccc1)Nc1ccc(NC(=O)c2cccs2)cc1
  99 | 97 | -28 | -19
CC(C)CN(CC(C)C)S(=O)(=O)N1CCC(C(=O)NCc2cccs2)CC1
  101 | 105 | 3 | 2
COc1ccc(CN(CCC(c2ccccc2)c2ccco2)C(C)=O)cc1 (configuration not stated)
  98 | 102 | -11 | 4
COC(=O)c1c(C)cc(O)c(C)c1O
  100 | 98 | -1 | -2
Cn1cccc1Cc1nnc(SCC(=O)N2CCCc3ccccc32)n1-c1ccc(F)cc1
  102 | 105 | -13 | -6

(next part)
Below each SMILES – PV pol inh | PV pol inh intensity | MenB inh | Mtb MbtI inh
O=C(c1cnn(C(=O)CN2c3cccc4cccc(c34)S2(=O)=O)c1)c1ccccc1O
  103 | 110 | -2 | 32
O=C1CCCN1C(=O)CSc1nnnn1-c1ccccc1
  94 | 93 | 17 | -29
O=S1(=O)c2cccc3cccc(c23)N1Cc1nc2ccccc2s1
  107 | 108 | -22 | -3
CC(C)(C)c1nnc(NC(=O)CS(=O)(=O)Cc2ccccc2)s1
  99 | 101 | 12 | 17
CC(OC(=O)c1cccnc1SC(C)C(=O)NC1(C#N)CCCCC1)C(=O)NC1(C#N)CCCCC1 (configuration not stated)
  106 | 108 | 1 | -2
N#CC1CN(CCc2ccccc2)CN(CCc2ccccc2)C1
  98 | 104 | -4 | -6
CC1=NC(C)(C)Cc2ccccc21
  102 | 102 | -3 | -247
CC1(C)Oc2[nH]c(=O)[nH]c(=O)c2C2c3ccccc3OCC21 (configuration not stated)
  104 | 103 | -18 | -6
CCOc1ccccc1C(=O)N(CC#N)CC#N
  108 | 112 | -15 | nt
Cc1cc(C)c(COc2ccc3c(c2C)OC(C)(C)CC3=O)c(C)c1
  107 | 110 | -21 | -13
c1cncc(-c2nc(NCCN3CCOCC3)c3ccccc3n2)c1
  94 | 104 | 7 | nt
CCC(=O)Oc1ccc2[nH]c(C)c(C)c2c1
  102 | 110 | 2 | -206
COc1cc(C2NC(=O)NC(c3ccc(O)c(OC)c3)C23C(=O)NC(=O)NC3=O)ccc1O (configuration not stated)
  104 | 103 | -25 | 24
Cn1nc(-c2ccc(OCC(=O)N3CCN(Cc4ccccc4)CC3)cc2)c2ccccc2c1=O
  103 | 101 | 1 | 20
Cc1ccc(C2N[C@@H](C(=O)O)C(C)(C)S2)cc1 (some centres not stated)
  101 | 100 | -16 | 3
Cc1cc(C)c(NC(=O)CC#N)c(C)c1
  101 | 112 | 3 | 18
c1ccc(Nc2nc3ccccc3n3nnnc23)cc1
  97 | 117 | -2 | 3
CCOC(=O)c1c(Sc2ccccc2)cnn1C(=O)Nc1cccc(Cl)c1
  102 | 110 | -5 | -10
O=C1NC(=O)C(=C2CCCCC2)S1
  105 | 106 | -36 | 86*
CC(C)c1nc2ccccc2n1CCOc1ccccc1
  102 | 105 | -16 | 6

Random excerpt: four compounds from above.
Below each SMILES – PV pol inh | PV pol inh intensity | MenB inh | Mtb MbtI inh
c1cncc(-c2nc(NCCN3CCOCC3)c3ccccc3n2)c1
  94 | 104 | 7 | nt
CCOc1ccccc1C(=O)N(CC#N)CC#N
  108 | 112 | -15 | nt
O=C(c1cnn(C(=O)CN2c3cccc4cccc(c34)S2(=O)=O)c1)c1ccccc1O
  103 | 110 | -2 | 32
O=S1(=O)c2cccc3cccc(c23)N1Cc1nc2ccccc2s1
  107 | 108 | -22 | -3

New compounds follow.
Below each SMILES – PV pol inh | PV pol inh intensity | MenB inh | Mtb MbtI inh
CCc1ccccc1NC(=O)CSc1nc2c(c(=O)n(C)c(=O)n2C)n1C
  100 | 98 | 2 | nt
CS(=O)(=O)NCc1cccc2ccccc12
  104 | 108 | -9 | nt
O=C(Nc1nccs1)C1CCN(C(=O)c2ccc(Cl)cc2)CC1
  101 | 109 | 4 | 2
CCSc1nnc(NC(=O)CCC(=O)OC2CCC(C)C(C)C2)s1 (configuration not stated)
  105 | 100 | 5 | 3
NNC(=O)c1ccc(Oc2cc(Cl)cc(Cl)c2)o1
  102 | 107 | 10 | 3
Cc1nc2cc(C(=O)O)ccc2n1-c1ccc(F)c(F)c1
  103 | 103 | -28 | 1
Cn1c(SCc2ccoc2C(=O)O)nnc1-c1ccccc1
  100 | 99 | -15 | nt
COc1ccc(/C=C/C(=O)Nc2cc(C)nc3ccccc23)cc1OC
  102 | 107 | nt | -115
O=S1(=O)CC2SC(=S)N(c3cccc(O)c3)C2C1 (configuration not stated)
  103 | 99 | -12 | -6
O=C1NC(=O)C(CCc2ccncc2)(Cc2ccc(Br)s2)C(=O)N1
  103 | 109 | -14 | nt
COC(=O)c1cc(S(=O)(=O)NC(C)(C)C)cn1C
  105 | 108 | -12 | -4
OC1CCN(c2cc(-c3ccccc3)nc3cc(-c4cccc(Cl)c4)nn23)CC1
  102 | 103 | -26 | 6
COc1ccc(N2CCN(C(=O)c3ccc(CS(=O)c4ccccc4)o3)CC2)cc1 (configuration not stated)
  100 | 100 | -10 | 3
CCNC(=O)NC(=O)C(c1ccccc1)n1nc(C(=O)O)c2ccccc2c1=O (configuration not stated)
  105 | 120 | -4 | 4

6 of these compounds, set out differently:
SMILES	PV pol inh	PV pol inh intensity	MenB inh	Mtb MbtI inh
CC(C)n1ncc2c(C(=O)Nc3cccc4ncccc34)cc(C3CC3)nc21	114	143	-17	-4
COC(=O)C(Cc1cc(Cl)ccc1Cl)SC#N (configuration not stated)	92	86	nt	42
OC1=CONN1c1cccc2ncccc12	102	105	-11	-8
Cc1noc(C)c1CSCC(=O)N1CCSC1=Nc1cccc(Cl)c1C	102	109	-21	-7
O=C(O)CCCN1C(=O)c2ccccc2Sc2ncccc21	nt	nt	7	4
CCOCCn1ccc2c(OCC(=O)NC3CCCCC3)cccc2c1=O	102	102	-10	-75

Screens (PubChem BioAssay)
